From PubChem BioAssay
Sa growth inh – inhibitors of Staphylococcus aureus growth at 42 °C | relative growth, % (no concentration beside the values) | S. aureus RN4220 growth, OD600, 20 h; hits give low values | actives 0.53% (n = 170,000);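 active means growth at 42 °C up to 50% and 20 or more points under that at 30 °C, or under 10% at both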;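 further: 300 nL library stock went into each well; scaled to the means of positive and negative controls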
HCMV UL50-53 inh – disrupts HCMV UL50-UL53 complex binding | inhibition, % (concentration not given with the values) | HTRF UL50-UL53 interaction, normalized percent inhibition | actives 0.15% (n = 190,000);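 active means both replicates at 50% or more, plus weaker picks with an unusually low signal ratio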;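 further: stock transfer was 100 nL into about 20 µL; 0% = negative control wells and 100% = wells with untagged competitor protein; inactives centre near -12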
GIV-Gai inh – blocks GIV peptide binding to rat Galpha-i3; P08753; Galpha-i3/FITC-GIV peptide fluorescence polarization, 90 min; hits give low values; scaled: aluminum fluoride 0%, vehicle 100%; percent of control (FP), % (test concentration not listed); actives 0.42% (n = 210,000); AID 1224905;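 active means replicate mean at 85% of control or lower, very high polarization wells dropped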;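 further: wells of about 15 µL received 100 nL stock; the first replicate is given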
Target sequence (P08753 whole entry, looked up): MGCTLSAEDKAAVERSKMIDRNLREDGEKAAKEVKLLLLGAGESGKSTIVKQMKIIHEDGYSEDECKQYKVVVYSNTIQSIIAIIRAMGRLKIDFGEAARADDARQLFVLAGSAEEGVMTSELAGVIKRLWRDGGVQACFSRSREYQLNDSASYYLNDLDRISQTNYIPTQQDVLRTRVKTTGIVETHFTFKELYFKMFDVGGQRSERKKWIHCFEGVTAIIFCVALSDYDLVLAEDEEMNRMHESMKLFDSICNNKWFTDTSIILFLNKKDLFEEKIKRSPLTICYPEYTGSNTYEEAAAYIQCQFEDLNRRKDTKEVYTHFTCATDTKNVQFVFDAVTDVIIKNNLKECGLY
Sa growth inh second temp – recorded beside Sa growth inh, whose call it bears; relative growth, %; measured here: growth at 30 °C;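 optical density after 20 h as mean of two plates; 100% = untreated growth and lower means inhibition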
An asterisk follows results filed as active; · = no result given; & = joins results of further samples.

Short keys – A = Sa growth inh; B = Sa growth inh second temp; C = HCMV UL50-53 inh; D = GIV-Gai inh
1	O=C(CSc1nc2c(sc3ccccc32)c(=O)n1CCCN1CCCC1)NCc1ccccc1
  A = 110 | B = 80 | C = 10 | D = 101

2	O=C(c1cc(NS(=O)(=O)c2cccs2)cc(NS(=O)(=O)c2cccs2)c1)N1CCCCC1
  A = 97 | B = 87 | C = -7 | D = ·

3	Cc1c(NC(=O)/C=C/c2ccc(Cl)cc2Cl)c(=O)n(-c2ccccc2)n1C
  A = 89 | B = 108 | C = -6 | D = ·

4	COc1ccc(Cl)cc1N=Cc1ccc2ncccc2c1
  A = 116 | B = 89 | C = -28 | D = ·

5	CCCC(NCc1ccc2c(c1)n(C)c(=O)n2C)c1ccccc1 (stereo unspecified)
  A = · | B = · | C = -19 | D = 106

6	CN1CCC(NC(=O)C2CCCO2)CC1 (stereo unspecified)
  A = 101 | B = 103 | C = -10 | D = 104

7	CCOC(=O)c1cnc(C)[nH]c1=O
  A = 107 | B = 72 | C = -6 | D = 103

8	O=C1CC2Sc3ccccc3N=C2N1Cc1ccccn1 (stereo unspecified)
  A = 98 | B = 85 | C = -42 | D = 110

9	COc1cc(NC(=O)CSc2ncnc3nc(N(C)C)sc23)cc(OC)c1
  A = · | B = · | C = -23 | D = 127

10	CCCCC1CCC(C(=O)OCC(=O)c2ccc(Br)cc2)CC1 (stereo unspecified)
  A = 100 | B = 100 | C = 6 | D = ·

11	O=C(NCc1ccccc1)N(Cc1cccnc1)Cc1cc2cc3c(cc2[nH]c1=O)OCCO3
  A = 81 | B = 71 | C = -28 | D = 100

12	COc1cc(OC)cc(C(=O)Nc2nc(CC(=O)Nc3ccc(OC)c(OC)c3)cs2)c1
  A = · | B = · | C = -15 | D = 106

13	COC(=O)Cc1cc(=O)[nH]c(SCC2CCCCO2)n1 (stereo unspecified)
  A = 98 | B = 98 | C = -16 | D = ·

14	C/C(=N\NC(=O)CNc1cccc(C(F)(F)F)c1)C1CC1
  A = 110 | B = 93 | C = 2 | D = ·

15	Cn1cc(-c2nc(-c3cccc(Cl)c3)no2)c(=O)c2cc(F)c(N3CCCC3)cc21
  A = · | B = · | C = -31 | D = 103

Reprinted at random: six entries already listed, in no set order.
Short keys – A = Sa growth inh; B = Sa growth inh second temp; C = HCMV UL50-53 inh; D = GIV-Gai inh
2	O=C(c1cc(NS(=O)(=O)c2cccs2)cc(NS(=O)(=O)c2cccs2)c1)N1CCCCC1
  A = 97 | B = 87 | C = -7 | D = ·

13	COC(=O)Cc1cc(=O)[nH]c(SCC2CCCCO2)n1 (stereo unspecified)
  A = 98 | B = 98 | C = -16 | D = ·

1	O=C(CSc1nc2c(sc3ccccc32)c(=O)n1CCCN1CCCC1)NCc1ccccc1
  A = 110 | B = 80 | C = 10 | D = 101

9	COc1cc(NC(=O)CSc2ncnc3nc(N(C)C)sc23)cc(OC)c1
  A = · | B = · | C = -23 | D = 127

4	COc1ccc(Cl)cc1N=Cc1ccc2ncccc2c1
  A = 116 | B = 89 | C = -28 | D = ·

8	O=C1CC2Sc3ccccc3N=C2N1Cc1ccccn1 (stereo unspecified)
  A = 98 | B = 85 | C = -42 | D = 110

Continued.
Short keys – A = Sa growth inh; B = Sa growth inh second temp; C = HCMV UL50-53 inh; D = GIV-Gai inh
16	O=C(CSc1nnc(Cc2ccccc2)n1Cc1ccccc1)N1CCCC1
  A = 96 | B = 87 | C = -17 | D = 100

17	CC1CCN(CCCNC(=O)Cc2c(C(=O)O)n(C)c3ccccc23)CC1
  A = 81 | B = 89 | C = -1 | D = 101

18	CCc1ccc(NC(=O)c2cccc(NC3=NC4CS(=O)(=O)CC4S3)c2)cc1 (stereo unspecified)
  A = 111 | B = 94 | C = -2 | D = 106

19	O=C(CNC(=O)c1ccc(C(F)(F)F)cc1)NC1CC1
  A = 93 | B = 88 | C = -25 | D = ·

20	COc1ccc(Cl)cc1-c1nc(SCC(=O)N2C(C)CCCC2C)n[nH]1 (stereo unspecified)
  A = 80 | B = 95 | C = 14 | D = ·

21	Cc1nnc(N2C(=O)c3oc4ccccc4c(=O)c3C2c2ccc(C(C)(C)C)cc2)s1 (stereo unspecified)
  A = 94 | B = 108 | C = -1 | D = 108

22	CCOc1ccc(NC(=O)C(CC)n2nc(-c3ccccc3)ccc2=O)cc1 (stereo unspecified)
  A = · | B = · | C = 4 | D = 104

23	COc1ccc(-c2ccc(CCC(=O)O)n2CC(=O)Nc2cccc(Cl)c2C)cc1
  A = 98 | B = 90 | C = -25 | D = 102

24	Cc1c(-c2cc(C(=O)NCC3CCCO3)c3ccccc3n2)cnn1-c1ccc(C(C)C)cc1 (stereo unspecified)
  A = · | B = · | C = -21 | D = 102

25	O=C(CSc1nc(=O)[nH]c2c1CCCC2)NCc1ccccc1Cl
  A = 105 | B = 94 | C = · | D = 102

26	CCC(C)Nc1oc(-c2ccc(COc3ccc(Cl)cc3)o2)nc1C#N (stereo unspecified)
  A = 105 | B = 82 | C = -26 | D = 95

27	CCOC(=O)N1CCN(C(=O)c2ccc(Br)cc2)CC1
  A = 90 | B = 89 | C = -3 | D = 94

28	Cn1cnc2c1c(=O)n(Cc1ccccc1)c(=O)n2C
  A = 104 | B = 89 | C = -24 | D = 105

29	O=C(CSc1nnc2[nH]c(=O)cc(-c3ccccc3)n12)Nc1cc(C(F)(F)F)ccc1Cl
  A = 113 | B = 93 | C = · | D = 102

30	COC(=O)c1c(SCC(=O)Nc2ccccc2C(F)(F)F)[nH]c2ccc(Cl)cc2c1=O
  A = 64 | B = 64 | C = · | D = 98

31	CCC12CC3CC(O)(CC(O)(C3)C1)C2
  A = 106 | B = 96 | C = · | D = 96

32	Cc1ccc(C)c(NC(=O)c2c(-c3ccccc3Cl)noc2C)c1
  A = · | B = · | C = -4 | D = 103

33	O=C1c2ccncc2C(=O)N1C1CCCCC1
  A = 102 | B = 86 | C = -5 | D = ·

34	Cc1cc(C)cc(NC(=O)CSc2nncn3c2cc2occc23)c1
  A = 73 | B = 68 | C = · | D = 114

35	CCOC(=O)c1cc2c(ccn2C)n1Cc1c(Cl)cccc1Cl
  A = 108 | B = 93 | C = -3 | D = 100

36	C=CCn1c(C)nnc1SCC(=O)c1ccc2ccccc2c1
  A = 64 | B = 79 | C = -85 | D = ·

37	CC1(C(=O)NCc2ccc3c(c2)OCO3)CCN(C(=O)C2CC2)CC1
  A = · | B = · | C = -23 | D = 104

38	CCNc1nc(NCC)n2c(SCC(=O)c3c[nH]c4ccccc34)nnc2n1
  A = 102 | B = 86 | C = -24 | D = ·

39	CCOc1ccc(-n2ccc(=O)c(C(=O)Nc3cccc(Cl)c3)n2)cc1
  A = · | B = · | C = 2 | D = 98

40	COc1ccc(OC)c(CCNC(=O)CCCn2c(=O)c3cccn3c3cccnc32)c1
  A = 122 | B = 97 | C = · | D = 104

41	Cn1cc(C(=O)O)c(=O)c2cc(S(=O)(=O)N3CCCCC3)ccc21
  A = 107 | B = 90 | C = · | D = 104

42	CC1=C/C(=C\c2c(O)n(-c3cccc(C)c3)c(=O)[nH]c2=O)C(C)=N1
  A = 100 | B = 100 | C = -23 | D = 243

43	COc1ccc(OC)c(N(CC(=O)Nc2ccc(S(=O)(=O)N3CCOCC3)cc2)S(=O)(=O)c2ccccc2)c1
  A = · | B = · | C = 0 | D = 99

44	COc1cc(C#N)ccc1OCC(N)=O
  A = 104 | B = 101 | C = -17 | D = 103

45	Cc1noc(-c2ccccc2)c1NC(=O)NCC1COc2ccccc2O1 (stereo unspecified)
  A = 96 | B = 86 | C = -37 | D = 104

46	COc1cccc(NC(=O)Cn2c(=O)n(Cc3nc(C)no3)c(=O)c3ccccc32)c1
  A = · | B = · | C = -4 | D = 107

47	CNC(=S)N1CCN(C(=O)/C(=C/c2ccc(F)cc2)NC(C)=O)CC1
  A = 86 | B = 103 | C = 9 | D = 106

48	COc1ccc(C2CC(=O)C3=C(C2)Nc2onc(C)c2C3c2ccccc2OC)cc1 (stereo unspecified)
  A = · | B = · | C = 0 | D = 108

49	O=C(CSC1=Nc2ccccc2N=C(c2ccc(Cl)cc2)C1)Nc1ccc2c(c1)OCO2
  A = · | B = · | C = -17 | D = 103

50	O=C(Cn1cc(C(F)(F)F)ccc1=O)NCC(F)(F)F
  A = 95 | B = 102 | C = -1 | D = ·

51	Cc1cccc(Cn2c(=O)n(CC3CCC(C(=O)N4CCOCC4)CC3)c(=O)c3sccc32)c1 (stereo unspecified)
  A = 102 | B = 93 | C = · | D = 99

52	COC(=O)c1ccc(COc2cccc(OC)c2)o1
  A = 105 | B = 88 | C = 7 | D = 102

53	CC(C)c1nnc2c(SCc3ccc(F)cc3)nc3ccccc3n12
  A = · | B = · | C = -51 | D = 106

54	COc1ccc(S(=O)(=O)Nc2ccc(O)c(Sc3nc4ccccc4s3)c2)cc1
  A = 129 | B = 105 | C = 18 | D = 106

55	CCOC(=O)c1ccc2c(c1)sc1nc(-c3ccc(OCC)cc3)cn12
  A = 93 | B = 83 | C = -4 | D = 96

56	O=C(NCc1ccccn1)c1ccc2c(c1)N(Cc1c(F)cccc1Cl)C(=O)c1ccccc1S2
  A = · | B = · | C = -18 | D = 103

57	CCCCOC(=O)C1=C(C)NC2=C(C(=O)CC(C)(C)C2)C1c1cc(Br)c(O)c(OC)c1 (stereo unspecified)
  A = · | B = · | C = -19 | D = 101

58	C/C(=N\NC(=O)Cc1ccc(Cl)cc1)c1ccccc1O
  A = 116 | B = 95 | C = -10 | D = 108

59	O=C(c1cc(-c2ccc(F)cc2)n[nH]1)N1CCn2c1nc1ccccc12
  A = · | B = · | C = -6 | D = 109

60	N#Cc1cccc(CS(=O)(=O)c2ccc(Cl)cc2)c1
  A = 91 | B = 84 | C = -32 | D = 109

61	Cc1c(C(=O)N2CCC3(CC2)OCCO3)sc2ncnc(N3CCCCC3C)c12 (stereo unspecified)
  A = · | B = · | C = 5 | D = 109

62	Cc1nn(-c2ccccc2)nc1C(=O)ON1C(=O)C2C3C=CC(O3)C2C1=O (stereo unspecified)
  A = 88 | B = 87 | C = -15 | D = 104

63	CC(=O)N1CC(=O)N=C1SCC(=O)Nc1nc(-c2ccccc2)cs1
  A = 97 | B = 104 | C = 17 | D = ·

64	CCC(C(=O)NC1CCCCC1)n1c(C(=O)OC)cc2sc(Cl)cc21 (stereo unspecified)
  A = 102 | B = 83 | C = · | D = 104

65	CCOC(=O)c1c(-c2ccccc2)csc1/N=C/c1sc2ccccc2c1O
  A = · | B = · | C = -8 | D = 133

66	Cc1ccc(-n2nc(C(=O)NCCCN3CCCC3)c3c4ccccc4n(C)c3c2=O)cc1
  A = · | B = · | C = -52 | D = 104

67	CCC(=O)Nc1cc(C(F)(F)F)ccc1N1CCOCC1
  A = 89 | B = 87 | C = -5 | D = ·

68	O=C(Nc1nnc(-c2ccccc2)o1)C1CCN(C(=O)/C=C/c2ccccc2)CC1
  A = 109 | B = 101 | C = -12 | D = ·

69	COc1ccc(N(CC(=O)Nc2ccccc2Br)S(=O)(=O)c2ccc(C)cc2)cc1OC
  A = · | B = · | C = 0 | D = 114

70	CCOC(=O)c1c(C)n(-c2ccc(OC)cc2)c2ccc(Oc3ncccc3C#N)cc12
  A = 107 | B = 72 | C = -4 | D = 98

71	Cn1nc(NC(=O)COCC(=O)O)c2ccccc21
  A = 97 | B = 95 | C = -26 | D = 103

72	Cc1ccc(C)c(-n2nnnc2SCC(=O)OCC(=O)c2cc(C)n(-c3ccc4c(c3)OCO4)c2C)c1
  A = 102 | B = 96 | C = -15 | D = ·

73	C=CCn1c(Cc2c[nH]c3ccccc23)nnc1SCC(=O)Nc1ccc(OC)cc1
  A = 104 | B = 74 | C = · | D = 103

74	O=C(NCCCN1CCCC1=O)c1ccc(Cl)c(NS(=O)(=O)c2ccc(F)cc2)c1
  A = 99 | B = 100 | C = -4 | D = ·

75	CCCCn1c(=O)n(Cc2cc(=O)n3ccsc3n2)c(=O)c2c1ncn2Cc1ccco1
  A = 87 | B = 75 | C = -26 | D = ·

Other entries follow.
Short keys – A = Sa growth inh; B = Sa growth inh second temp; C = HCMV UL50-53 inh; D = GIV-Gai inh
76	O=C(CSc1nc2c([nH]c3ccccc32)c(=O)n1-c1cccc(Cl)c1)N1CCc2ccccc21
  A = 92 | B = 85 | C = · | D = 103

77	Fc1ccccc1N1CCN(c2nc3ccccc3nc2C(F)(F)F)CC1
  A = · | B = · | C = -5 | D = 96

78	O=c1[nH]nc2ccc(Sc3cccc(F)c3)nn12
  A = · | B = · | C = -152 | D = 100

79	O=C(Nc1nnc(S(=O)(=O)N2CCc3ccccc32)s1)c1cccc(Cl)c1
  A = 69 | B = 35 | C = -12 | D = 104

80	Cc1ccccc1NC(=O)CSc1nc(-c2ccccc2)cn1-c1ccccc1F
  A = 118 | B = 93 | C = · | D = 105

81	CC1SC(/N=C/c2ccc(O)cc2)=NNC1=O (stereo unspecified)
  A = 128 | B = 90 | C = -8 | D = ·

82	CN(C)c1ccc(-c2nnc(-c3cccnc3)o2)cc1
  A = 91 | B = 103 | C = 0 | D = 106

83	N#C/C(N)=C(/C#N)N=Cc1cccs1
  A = 103 | B = 96 | C = -38 | D = 112

84	COc1cccc(C(=O)Nc2ccc3nc(N4CCC(C)CC4)cc(C)c3c2)c1
  A = 93 | B = 85 | C = 3&1 | D = 99&102

85	O=C(NC1CCCC1)C1CCN(S(=O)(=O)N2CCCCC2)CC1
  A = 97 | B = 95 | C = · | D = 99

86	CCOc1ccc(NC(=O)CCC(C(=O)O)C(C)C)cc1 (stereo unspecified)
  A = 100 | B = 109 | C = 3 | D = 104

87	CS(=O)(=O)N1CCCC1c1ccccc1F (stereo unspecified)
  A = · | B = · | C = -18 | D = 97
